# OX1R antag – antagonists of human orexin 1 receptor (OX1R). Orexin/Hypocretin receptor type 1 (Homo sapiens), O43613. OX1R-expressing cells, FRET antagonist read-out. inhibition, % at 6.6 µM. actives 1.8% (n = 330,000); in the data active means inhibition mostly above about 38%, no sharp cut-off; inactive means mostly below about 40%;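 further: 0% = agonist challenge alone and 100% = reference antagonist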
# Target sequence (O43613 whole entry, looked up): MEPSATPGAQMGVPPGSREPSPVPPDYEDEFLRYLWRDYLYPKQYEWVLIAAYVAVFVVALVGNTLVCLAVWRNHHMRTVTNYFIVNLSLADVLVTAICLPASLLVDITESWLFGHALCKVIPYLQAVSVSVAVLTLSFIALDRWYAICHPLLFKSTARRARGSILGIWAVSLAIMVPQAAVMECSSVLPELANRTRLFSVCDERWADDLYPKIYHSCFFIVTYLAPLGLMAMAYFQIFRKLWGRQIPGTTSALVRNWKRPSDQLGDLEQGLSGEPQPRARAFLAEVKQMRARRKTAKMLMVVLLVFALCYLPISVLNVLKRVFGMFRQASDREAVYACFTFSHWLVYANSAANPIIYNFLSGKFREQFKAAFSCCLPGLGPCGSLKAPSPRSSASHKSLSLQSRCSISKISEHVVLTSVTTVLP
# Active calls of the source: *. The list is partial, and most or all hits are left out here.
SMILES,OX1R antag
O=C(Nc1ccccc1)C(c1ccccc1)c1ccccc1,10
Cc1nnc(SCC(=O)Nc2cc(C(N)=O)cc(C(N)=O)c2)n1-c1ccccc1,16
CC1=CCC2C(=O)N(c3cccc(C(=O)NCc4ccccc4)c3)C(=O)C2C1 (configuration not stated),8
CCC(CC)C(=O)Nc1cc(Cl)ccc1C,16
Clc1ccc2nc(CN3CCCCCC3)cn2c1,13
Cn1c(=O)n(C)c2cc(NS(=O)(=O)c3ccc(Cl)s3)ccc21,12
Cc1nc2nc(SCC(=O)O)nn2c(C)c1Cc1c(F)cccc1Cl,17
CC(C)N1CCc2c(sc(NC(=O)c3ccc(S(=O)(=O)N4CCOCC4)cc3)c2C(N)=O)C1,-10
CCCOc1ccc(/C=C/C(=O)N2CCN(c3ccccn3)CC2)cc1,33
O=C(c1ccco1)N1CCN(S(=O)(=O)N2CCOCC2)CC1,11
CCCCSC(=O)Nc1ccccc1,17
N#CCOc1ccccc1P(=O)(c1ccccc1)c1ccccc1,8
N=c1c(C(=O)NC2CCCCC2)cc2c(=O)n3ccccc3nc2n1Cc1ccccc1,35
CN1CCN(S(=O)(=O)c2ccc(Oc3ccc(F)c(Cl)c3)nc2)CC1,22
COCC(=O)N(C)c1nnc(-c2cnccn2)s1,15
CCC(C)NC(=S)NNC(=O)c1ccc(C(C)(C)C)cc1 (configuration not stated),0
CC1CCc2nc(NC(=O)CN3CCN(c4ccccc4)CC3)sc2C1 (configuration not stated),4
Cc1ccc(NC(=O)C(=O)NCC2CCCN2S(=O)(=O)c2cccs2)cc1 (configuration not stated),4
COc1ccc(CCNC(=O)COC(=O)c2cc(S(=O)(=O)NCc3ccccc3)ccc2O)cc1OC,23
CO/N=C(/CNC(=O)c1cccc(Cl)c1)c1ccc(Cl)cc1,11
O=C(c1ccco1)N1CCN(Cc2nnc(-c3ccccc3F)o2)CC1,17
O=C(Nc1cccc(Cl)c1)N1CCOCC1,-1
O=C(Nc1ccc(Oc2ccccc2)nc1)C1CCCCN1Cc1ccco1 (configuration not stated),11
Fc1ccc(COc2ccc(-c3nnco3)cc2)cc1,9
Cc1noc(C)c1COc1ccc(C(=O)OC(C)C(=O)Nc2ccc(N3CCOCC3)cc2)cc1 (configuration not stated),0
CC(=O)Oc1c(S(=O)(=O)c2ccccc2)c(C)nn1C(C)(C)C,24
CN(C)c1ccc(CN2CCCCC2)cc1,24
Cc1ccccc1C(=O)Nc1ccccc1C(=O)NC1CC1,25
O=C(CSc1nc2[nH]ncc2c(=O)[nH]1)NCc1ccccc1Cl,5
CCOC(=O)Cc1csc(N/C(=N/S(=O)(=O)c2ccc(Cl)cc2)c2ccccc2)n1,14
Cc1ccccc1OCC(O)CN1CCN(CC(O)COc2ccccc2C)CC1 (configuration not stated),10
COc1cc([N+](=O)[O-])ccc1NC(=S)NNC(=O)c1ccc2c(c1)OCO2,47
CCc1cccc(NC(=O)c2ccc(Cn3c(=O)[nH]c4ccsc4c3=O)cc2)c1,3
C=CCn1c(SCC(=O)Nc2ncc(Cc3ccc(C)c(Cl)c3)s2)nnc1-c1ccncc1,6
C/C=C\C=C/C(=O)Nc1cccc(C2=NOC3(C2)C[C@@H](C(N)=O)N(C(=O)/C=C/CC)C3)c1 (some centres not stated),5
CCC(C)c1ccc(OCCn2ccnc2)cc1 (configuration not stated),28
COC(=O)Nc1ccc2c(c1)N(C(=O)CCN1CCN3CCCC3C1)c1ccccc1S2 (configuration not stated),5
O=C(NC(Cc1c[nH]c2ccccc12)C(=O)N/N=C/c1cccc2ccccc12)c1cccs1 (configuration not stated),45
CCCNC(=O)Cn1cnc2sc(C(=O)N3CCCC(C(=O)OCC)C3)c(C)c2c1=O (configuration not stated),9
CCc1ccccc1Nc1nc(N)nc(CSc2nnnn2C)n1,12
CC(=O)c1cccc(Nc2nc(-c3ccccc3)nc3ccccc23)c1,41
CC(C)(C)c1ccc(C(=O)Nc2nnc(SCC(=O)NCC3CCCO3)s2)cc1 (configuration not stated),25
Cc1cc(C)[n+](-c2ccc(F)cc2)c2[nH]c(=O)[nH]c(=O)c12,5
COc1ccc(-n2ncc(S(=O)(=O)c3ccccc3)c2-c2ccc(Cl)cc2)cc1,7
O=C(CN(CCc1ccccc1)S(=O)(=O)c1ccc(Br)cc1)N/N=C/c1ccccc1C(=O)O,14
Cc1ccc(S(=O)(=O)N2CCN(C(=O)Cc3ccccc3)CC2)cc1,7
CC(C)(C)n1nnc(CCc2nnn(C(C)(C)C)n2)n1,19
Cc1cccc(N(C(=O)c2ccc(CN3CCOCC3)o2)C(C(=O)NC(C)(C)C)c2ccc(F)cc2)c1 (configuration not stated),18
COc1ccc(CCNC(=O)COC(=O)/C=C/c2ccc(OCC#N)c(OC)c2)cc1OC,15
CCOC(=O)Cc1csc(NS(=O)(=O)Cc2ccccc2)n1,24
COc1ccccc1NC(=O)COC(=O)Cc1cccs1,20
COc1ccc(C2=NN(C(=O)c3ccco3)C(c3ccco3)C2)cc1OC (configuration not stated),24
CC(=O)C1=C(O)C(=O)N(CC(=O)O)C1c1ccccc1Cl (configuration not stated),3
Cc1cc(C)cc(C(=O)n2cnnc2N)c1,16
CSCC(=O)NCC1(N(C)Cc2ccccc2)Cc2ccccc2C1,3
CCC(C)n1c(-c2cccc(S(=O)(=O)N(CC)CC)c2)n[nH]c1=S (configuration not stated),11
CC(=O)Oc1ccc(-c2csnn2)cc1,13
O=C(Nc1ccnn1C1CCN(Cc2ccc3nonc3c2)CC1)c1cccc(F)c1,9
CCOC(=O)c1nnn(CC(=O)Nc2cccc(Cl)c2C)c1C(=O)OCC,8
COc1ccc(N2CCN(C(CNC(=O)COc3ccccc3)c3ccco3)CC2)cc1 (configuration not stated),11

# The list continues:
SMILES,OX1R antag
O=C1OC(/C=C/c2ccccc2)=NC/1=C/c1ccco1,9
Cn1ncc(Br)c1C(=O)Nc1cccc(C(F)(F)F)c1,3
O=c1cc(CN2CCN(c3ccccc3)CC2)c2c(ccc3ccccc32)o1,19
CCC(=O)Nc1nc2c(OC)ccc(C)c2s1,11
O=c1c2ccccc2nc2n1CCC2O (configuration not stated),9
Cc1nn(-c2ccc(F)cc2)c2c1cc(C#N)c1nc3ccccc3n12,14
CCOC(=O)c1c(C)nn(-c2ccc(NC(=O)/C=C/C(=O)O)cc2)c1C,17
CCN1CCN(C(=O)c2cc3c(OC)c(OC)c(OC)cc3[nH]2)CC1,5
Cc1ccnc(NC(=O)CN2C(=O)c3ccccc3S2(=O)=O)c1,-2
O=C(Nc1cccnc1)c1ccc(NC(=O)c2ccco2)cc1,17
O=C(Nc1cccc2ccccc12)N1N=CCC1c1ccccc1 (configuration not stated),12
O=C(c1cnn(C(=O)c2ccccc2)c1)c1ccccc1O,5
Cc1ccc(C(=O)C2C(=O)c3ccccc3C2=O)cc1,25
CCOc1ccccc1OCC(=O)NNC(=O)Cn1cnc2c1c(=O)n(C)c(=O)n2C,29
O=C(NCCCN1CCOCC1)C1Cc2c(ccc3ccccc23)O1 (configuration not stated),22
CCc1ccc2nc(NC(=O)CCCc3cccs3)sc2c1,6
O=c1oc(-c2cccc(C(F)(F)F)c2)nn1-c1ccc(C(F)(F)F)cn1,6
Cc1onc(-c2ccccc2)c1C(=O)N1CCN(C)CC1,18
COc1ccc(/C=N/NC(=O)CCOc2ccccc2C)cc1OC,22
Cc1nc(Cc2nnc(SCC(=O)Nc3c(C)cccc3C)o2)cs1,17
Cc1cc(C)cc(C(=O)NC(=S)Nc2ccc(-c3cc4ccccc4oc3=O)cc2)c1,13
O=C(O)c1cccc(-n2cccc2/C=C\[N+](=O)[O-])c1,7
O=C(O)CSc1sc(=S)sc1SCC(=O)O,15
CC(=O)Nc1nnc(SCc2ccccc2F)s1,14
Cc1onc(-c2ccccc2)c1CNC(=O)CN1C(=O)c2ccccc2C1=O,8
COc1ccc(S(=O)(=O)N2CCC(C(=O)NCc3ccncc3)CC2)cc1,2
COc1ccccc1-c1nnc(NC(=O)c2cccc(N3C(=O)CCC3=O)c2)o1,17
CCCNC(=S)NCCN1CCCCC1,20
COCCN1C(=O)N(c2cccc(OC)c2)C(=O)C1CC(=O)Nc1ccc(Cl)cc1 (configuration not stated),8
CN1CCc2c(sc3c2C(=O)NC(c2ccc(-c4cccc(Cl)c4)o2)N3)C1 (configuration not stated),14

# Filtered by structure, the compounds so far containing an NH in an aromatic ring.
SMILES,OX1R antag
O=C(CSc1nc2[nH]ncc2c(=O)[nH]1)NCc1ccccc1Cl,5
CCc1cccc(NC(=O)c2ccc(Cn3c(=O)[nH]c4ccsc4c3=O)cc2)c1,3
O=C(NC(Cc1c[nH]c2ccccc12)C(=O)N/N=C/c1cccc2ccccc12)c1cccs1 (configuration not stated),45
Cc1cc(C)[n+](-c2ccc(F)cc2)c2[nH]c(=O)[nH]c(=O)c12,5
CCC(C)n1c(-c2cccc(S(=O)(=O)N(CC)CC)c2)n[nH]c1=S (configuration not stated),11
CCN1CCN(C(=O)c2cc3c(OC)c(OC)c(OC)cc3[nH]2)CC1,5

# Going on with the list:
SMILES,OX1R antag
COc1cccc(/C=N/NC(=O)C(=O)N2CCCC2)c1OC,-5
O=C(NCC1CCN(Cc2ccccc2F)CC1)Nc1ccccc1F,-9
COc1ccc(-c2nc(N)n(C(=O)c3ccco3)n2)cc1,-2
Cc1ccc([N+](=O)[O-])cc1N=C(c1cccc([N+](=O)[O-])c1)N1CCOCC1,19
CCCc1oc(C(=O)O)cc1CN,11
O=C1[C@@H]2C(c3cccnc3)=NO[C@@H]2C(=O)N1c1ccc(Cl)cc1Cl,6
CCn1c(C)[n+](CC(O)COCC2CC=CCC2)c2ccccc21 (configuration not stated),6
Cc1ccc(CN2CCSCC2)cc1,5
COc1ccc(C)cc1S(=O)(=O)Nc1cccc(-c2cn3cccnc3n2)c1,2
CCCn1c(N)c(N(CCOC)C(=O)c2cccc(Cl)c2)c(=O)[nH]c1=O,11
COc1ccccc1OCCc1nnc(N)s1,8
O=C1CNC(=S)N1C1CCCCCC1,4
Fc1ccc(-c2ncc3ccccn23)cc1,7
COC(=O)COc1ccc(/C=N/NC(=O)c2ccc(N(Cc3ccccc3)S(C)(=O)=O)cc2)cc1,4
CCC/C(C)=N\Nc1nc2c(c(=O)n(C)c(=O)n2C)n1C,24
CC(=O)Nc1ccc(NC(=O)COC(=O)/C(=C/c2ccccc2)n2nnnc2C)cc1,1
COCCn1c(SCC(=O)c2ccccc2)nc2ccccc2c1=O,24
Cc1nn(CC(=O)NCCCN2CCN(Cc3ccccc3)CC2)c(=O)c2cc(-c3ccccc3)nn12,39
COc1c(C(=O)NCCSC(C)(C)C)ccc2ccccc12,8
CS(=O)(=O)c1ccc(C(=O)N(Cc2ccccc2)c2ccccc2)cc1,1
CC(=O)Nc1ccc(OCC(O)Cn2c(C(C)C)nc3ccccc32)cc1 (configuration not stated),3
COc1ccc(S(=O)(=O)NCCN2CCOCC2)cc1[N+](=O)[O-],13
O=C(/C=C/c1ccccc1)Oc1cccc(C(=S)N2CCOCC2)c1,23
O=C(CCc1nc2sc3c(c2c(=O)[nH]1)CCCC3)Nc1cccc(Cl)c1,8
COCCNC(=O)Cn1cnc2sc(C)c(S(=O)(=O)N3CCN(c4ccccc4OC)CC3)c2c1=O,6
CCOc1cccc(NC(=O)C(Cc2cccs2)c2nn[nH]n2)c1 (configuration not stated),7
COc1ccc(C2CC(c3ccccc3)n3nnnc3N2)cc1 (configuration not stated),19
O=C(CNC(=O)c1cccs1)NCC(=O)OCc1ccccc1Cl,13
O=C(CCCNC(=O)/C(=C\c1ccc(F)cc1)NC(=O)c1ccccc1)OCc1ccccc1,8
COc1cnc(-c2ccccn2)nc1Sc1ccc(Cl)cc1,13

# Exported with each value named: four of the compounds above.
smiles: CC(=O)Nc1ccc(OCC(O)Cn2c(C(C)C)nc3ccccc32)cc1 (configuration not stated)
  OX1R antag = 3
smiles: CCOc1cccc(NC(=O)C(Cc2cccs2)c2nn[nH]n2)c1 (configuration not stated)
  OX1R antag = 7
smiles: O=C(/C=C/c1ccccc1)Oc1cccc(C(=S)N2CCOCC2)c1
  OX1R antag = 23
smiles: CC(=O)Nc1ccc(NC(=O)COC(=O)/C(=C/c2ccccc2)n2nnnc2C)cc1
  OX1R antag = 1

# Additional entries.
SMILES,OX1R antag
COc1cccc(NS(=O)(=O)c2cc(C)ccc2OC)c1,3
Cc1cccc(-n2ccnc2SCC(=O)O)c1C,30
Cc1ccc(-c2noc(C3CCCN(C(=O)c4cccc(Cl)c4)C3)n2)o1 (configuration not stated),3
CCOc1ccc(NC(=O)c2cc(S(=O)(=O)N3CCCCC3)c[nH]2)cc1,15
Cc1cccc(NC(=O)c2cc(Cl)sc2Cl)c1C,16
O=C(CN1CCN(S(=O)(=O)c2ccc(Br)cc2)CC1)Nc1ccccc1C(=O)c1ccccc1,19
CSc1ccc(/C=C/C(=O)c2ccc(NC(C)=O)cc2)cc1,55
Cc1nn(-c2ccc(F)cc2)c2sc(C(=O)OCC(=O)N3CCC(C)CC3)cc12,8
CC(C)c1ccc(NC(=O)c2ccc(Br)o2)cc1,25
CCn1c(SCC(=O)NCC2CCCO2)nc2c([nH]c3ccccc32)c1=O (configuration not stated),2
CCCNC(=O)c1ccc2c(c1)nc(C)n2-c1cccc(C)c1,24
O=C(CNC(c1ccccc1)c1ccccc1)Nc1ccccc1Br,7
S=C(Nc1ccc(Br)cc1)Nc1ccc2c(c1)OCCO2,19

# A few values from the list:
# CCCNC(=O)c1ccc2c(c1)nc(C)n2-c1cccc(C)c1 in OX1R antag shows 24
# Cc1nn(-c2ccc(F)cc2)c2sc(C(=O)OCC(=O)N3CCC(C)CC3)cc12 in OX1R antag shows 8
# CCOc1ccc(NC(=O)c2cc(S(=O)(=O)N3CCCCC3)c[nH]2)cc1 in OX1R antag shows 15
# COc1cccc(NS(=O)(=O)c2cc(C)ccc2OC)c1 in OX1R antag shows 3
# CSc1ccc(/C=C/C(=O)c2ccc(NC(C)=O)cc2)cc1 in OX1R antag shows 55
# O=C(CNC(c1ccccc1)c1ccccc1)Nc1ccccc1Br in OX1R antag shows 7
